D2 ag: Beta-Arrestin HTS for Positive Allosteric Modulators of the Human D2 Dopamine Receptor: Agonists | DiscoveRx PathHunter D2 beta-arrestin, luminescence, 90 min; 100% = 57 uM dopamine signal | activation, % (concentration not given with the values) | 360,000 tested, 0.084% active | AID 624465, 2012; in the data active = activation above about 40%; inconclusive = about 15% to 40%; inactive = below about 15%; further: compound concentration not given in the record; the text of the record calls up to 30% inactive
Target sequence (P14416 whole entry, looked up): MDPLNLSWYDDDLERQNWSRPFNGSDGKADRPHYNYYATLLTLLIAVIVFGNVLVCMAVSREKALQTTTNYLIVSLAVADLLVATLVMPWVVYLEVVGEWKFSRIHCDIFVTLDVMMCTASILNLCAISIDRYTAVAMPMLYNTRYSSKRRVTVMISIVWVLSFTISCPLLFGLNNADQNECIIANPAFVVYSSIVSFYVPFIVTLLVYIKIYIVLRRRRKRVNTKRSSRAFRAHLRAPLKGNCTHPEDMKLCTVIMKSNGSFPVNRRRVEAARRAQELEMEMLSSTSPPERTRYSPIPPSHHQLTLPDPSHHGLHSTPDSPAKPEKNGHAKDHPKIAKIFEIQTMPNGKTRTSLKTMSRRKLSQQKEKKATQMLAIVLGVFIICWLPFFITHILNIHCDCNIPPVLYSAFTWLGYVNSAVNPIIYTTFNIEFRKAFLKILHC
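DiscoveRx PathHunter D2 beta-arrestin cells (2,100/well) attached overnight, then compound-stimulated 90 min at 37 C in HBSS/10 mM HEPES/0.1% Tween-20 buffer; beta-galactosidase complementation read by luminescence after 1 h at ambient temperature. Dopamine 57 uM final (EC100) as control.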
Six1-Eya2 blk: qHTS Assay for Inhibitors of the Six1/Eya2 Interaction; Homeobox protein SIX1 (Homo sapiens) + Protein phosphatase EYA2 (Homo sapiens), …; AlphaScreen GST-Six1/His-Eya2 binding, biochemical; active compounds read low; control for the full effect not named in the record; activity change, % (no concentration beside the values); 360,000 tested, 0.56% active; AID 651725, 2012; in the data active = activity change below about -65%; inconclusive = about -30% to -65%; inactive = above about -30%; further: on the % scale 0 is the no-effect control and ±100 the full control effect
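Homogeneous AlphaScreen proximity assay pairing GST-Six1 with His-tagged Eya2 (added as 5X mix: 250 nM and 500 nM) in 50 mM Tris pH 8.0, 300 mM NaCl, 1 mM TCEP. Glutathione donor and nickel acceptor beads; 1 h, 37 °C, dark.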
gsp agonist: qHTS for Agonist of gsp, the Etiologic Mutation Responsible for Fibrous Dysplasia/McCune-Albright Syndrome: qHTS | gsp mutant cells, cAMP HTRF, 30 min; control for the full effect not named in the record | Potency, µM (doses to about 76.9 µM), for inactives: at the top dose activation (cAMP increase), most hits filed as activators | 340,000 tested, 0.13% active | AID 624287, 2012; active = well fitted activation curve with a large enough effect; inconclusive = small, poorly fitted or top-dose-only effect, or another doubt; inactive = no such curve, though single readings can be large or run the other way; cell line not stated here;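 further: phosphodiesterase inhibitor Ro 20-1724 added with compounds to block cAMP breakdown; potency means the concentration at half of the fitted maximal effect; nearly all actives have a fitted effect of over 60% in size; about a fifth of the inactives were tested at one dose only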
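Cells in DMEM/10% FBS with G418 were pretreated with compounds in DMSO plus […] (300 uM stock) for 30 min at 37C. cAMP was measured by HTRF (cAMP-d2 plus anti-cAMP antibody-K) after 30 min at room temperature.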
D2 PAM: Beta-Arrestin HTS for Positive Allosteric Modulators of the Human D2 Dopamine Receptor: Potentiators; D(2) dopamine receptor (Homo sapiens), P14416; DiscoveRx D2 beta-arrestin cells, luminescence, 90 min; 100% = 57 uM dopamine signal; potentiation, % (concentration not given with the values); 360,000 tested, 0.23% active; AID 624464, 2012; active = potentiation of 50% or more; inconclusive = 30% to 50%; inactive = 30% or less;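 further: compound concentration not given in the record; tested on top of an EC20 dose of dopamine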
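D2 cells co-treated with compound plus 50 nM dopamine (EC20) for 90 min at 37 deg C to detect potentiation. Beta-arrestin recruitment was read as enzyme-fragment luminescence after 1 h at ambient temperature. Full response was set by 57 uM dopamine.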
gsp antagonist: qHTS for Antagonists of gsp, the Etiologic Mutation Responsible for Fibrous Dysplasia/McCune-Albright Syndrome: qHTS. gsp-mutant cells, cAMP HTRF, 30 min; control for the full effect not named in the record. Potency, µM (series often up to 76.9 µM), inactives show top-dose activity change, negative = inhibition, most hits filed as inhibitors. 340,000 tested, 0.4% active; active = falling curve of any shape with a large fitted effect; inconclusive = falling curve, mostly with a smaller effect; inactive = flat or rising curve; cell line not stated here;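 further: intracellular cAMP measured with PDE inhibitor Ro 20-1724 present during compound exposure; potency means the concentration at half of the fitted maximal effect; on the % scale 0 is the no-effect control and ±100 the full control effect; nearly all actives have a fitted effect of over 65% in size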
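HTRF cAMP measurement after 30 min RT detection following 30 min, 37C compound treatment alongside […] (added as 300 uM solution) in G418-selected cells seeded at 2000/well and grown 16–24 h.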
CtBP-E1A blk: qHTS Assay for Inhibitors of the CtBP/E1A Interaction; CtBP / adenovirus E1A interaction (AlphaScreen); AlphaScreen GST-E1A/His-CtBP binding, 1536-well; active compounds read low; control for the full effect not named in the record; activity change, % (concentration not given with the values); 340,000 tested, 0.49% active; in the data active means activity change below about -65%; inconclusive means about -30% to -65%; inactive means above about -30%; further: on the % scale 0 is the no-effect control and ±100 the full control effect
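GST-E1A and His-tagged CtBP (125 nM each as 5X stock) were preincubated with pin-transferred compound for 2 h at 37 °C in the dark, then glutathione donor and nickel acceptor beads were added for 1 h before AlphaScreen reading.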
* = called active by the depositor; u = inconclusive; x = no result given; [ ] = another dose, or the depositor's remark.

SMILES | D2 ag | Six1-Eya2 blk | gsp agonist | D2 PAM | gsp antagonist | CtBP-E1A blk
COc1ccc(S(=O)(=O)N2CCN(c3ncccn3)CC2)cc1 | -2.6 | 0.4 | 18.7% | -12.1 | -2.2% | x
COc1cc(C(=O)OCC(=O)NCCC2=CCCCC2)cc(OC)c1OC | 0.2 | -2.9 | -44.9%[inhibitor] | -23.4 | -1.0% | 2.3
O=C(/C=C/Nc1cccc(C(F)(F)F)c1)C(F)(F)F | 0.5 | -0.5 | -0.2% | -10.0 | -1.6% | 4.6
CCS(=O)(=O)N1CCN(S(=O)(=O)c2ccc3c(c2)OCCO3)CC1 | 1.6 | -1.8 | u | -2.0 | -5.2% | 0.0
CCN1CNC(=S)N(c2ccccc2C)C1 | -5.0 | 0.8 | 5.0% | -14.9 | 8.6% | x
COc1ccccc1NC(=O)C1=C(C)NC(=O)NC1c1ccc(C)s1 (stereo not given) | -3.7 | 1.7 | 4.5%[15.4 µM] | -8.3 | -13.0% | 4.6
COc1ccc(Nc2nc3cc(-c4ccccc4C)sc3c(=O)n2C)cc1OC | 1.8 | -16.6 | x | -10.7 | x | -11.0
CCSc1ncc(C#N)c(N)n1 | -1.1 | 0.8 | u | 25.1 | 7.1% | 4.7
COc1ccc(C(CNc2ccc(S(=O)(=O)N3CCCC3)cc2[N+](=O)[O-])N2CCCC2)cc1 (stereo not given) | -5.1 | u | -1.7% | -3.0 | -7.5% | -12.2
CS(=O)(=O)N1CCN(C(=O)c2c(F)cccc2F)CC1 | -2.1 | 6.1 | -22.6% | -6.4 | 11.2% | 8.6
COCc1[nH]nc2c1C(c1ccccc1OC)C(C#N)=C(N)O2 (stereo not given) | -2.7 | 6.4 | -10.0% | -4.9 | 6.3% | 2.1
COc1ccccc1NC(=O)c1cnc(Nc2ccccc2OC)c2ccccc12 | -4.2 | 50.2 | -3.7% | -15.1 | 15.0% | 1.7
C=C1CCC[C@]2(C)C[C@H]3OC(=O)C(CNC(C)(CO)CO)[C@H]3CC12 (stereo not given in full) | 8.2 | 6.9 | -21.5% | 5.1 | 4.9% | 1.3
CCOC(=O)c1ccc(CNC(=O)Cn2nnc(-c3ccccc3)n2)o1 | 4.2 | -3.8 | 6.4% | -10.2 | -4.3% | -5.7
CCCCCNCC(=O)Nc1cc(C(F)(F)F)ccc1OCCOC | -6.1 | 5.7 | u | -7.6 | 9.4% | x
CC1(C)CCC(=NNC(N)=S)CC1 | 3.0 | 4.6 | -2.4% | -3.0 | 6.4% | -14.8
CC1Cc2ccccc2N1C(=O)CO/N=C/c1ccccc1OC(F)F (stereo not given) | 0.1 | -1.2 | -0.9%[15.4 µM] | -5.6 | u | 10.1
O=c1cc(O)c2sc3nc(-c4cccnc4)cc(C(F)(F)F)c3c2[nH]1 | -4.5 | u | -16.9% | -10.9 | 6.4% | -3.3
COc1ccc(OC)c(NC(=O)C2CCCC2)c1 | 0.4 | 11.0 | 0.7% | -1.0 | -1.3% | 5.9
COc1cccc(C(O)c2ncc(-c3cccc(C(F)(F)F)c3)[nH]2)c1 (stereo not given) | 1.7 | -8.1 | x | 1.8 | x | -6.3
CCc1cc(=O)oc2c(CNCc3c(F)cccc3Cl)c(O)ccc12 | 4.9 | 3.1 | 14.7% | -11.3 | -10.9% | 4.9
CC(C)NS(=O)(=O)c1ccc(OCC(=O)Nc2ccc(F)cc2)cc1 | 0.9 | 11.9 | -4.7%[15.4 µM] | -3.3 | 2.6% | x
Cc1nc2ccc(N=NN(C)C)cc2[nH]1 | -2.2 | -20.8 | 3.1% | 0.3 | 3.7% | u
COc1cc(/C=C/C(=O)NC(=O)c2ccccc2O)ccc1OC(C)=O | -1.8 | -10.8 | x | -4.2 | -19.7% | -27.2
CNc1ccc(Br)cc1C(O)c1ccccc1 (stereo not given) | -0.8 | -0.6 | -5.3%[15.4 µM] | 1.6 | -2.6% | 5.0
N#Cc1cccc(NC(=O)Cc2ccsc2)c1 | -1.4 | 2.6 | -12.9% | -4.3 | 4.1% | -3.6
CCN1CCN(c2nc(S(=O)(=O)c3ccc(C)cc3)c(Cl)s2)CC1 | -5.6 | -5.1 | -3.5%[15.4 µM] | -18.4 | 12.4% | -4.8
NS(=O)(=O)c1ccc(NC(=O)CN2C(=O)c3ccccc3C2=O)cc1 | 0.6 | -0.5 | -0.2% | -2.3 | 13.3% | 7.1
O=[N+]([O-])c1ccc2c(c1)C(O)n1nc(-c3ccc(Cl)cc3Cl)nc1S2 (stereo not given) | -5.7 | -0.3 | 17.0% | 8.8 | 7.2% | -1.4
COc1ccc(NC(=O)CC2C(=O)N(C)C(=S)N2CCc2ccccc2)cc1 (stereo not given) | 3.7 | 5.4 | 9.5%[15.4 µM] | -4.8 | -20.5% | 2.6
CC(=O)NCC(=O)N(Cc1ccco1)C1(C(=O)NC2CCCC2)CCCCC1 | -6.2 | -4.2 | 3.2%[15.4 µM] | -0.6 | -0.4% | 6.4
COc1ccc(CN(Cc2cc3ccc(C)cc3[nH]c2=O)Cc2nnnn2C2CCCC2)cc1 | -1.3 | -12.9 | -1.9% | -20.1 | -24.4% | 14.0
CCc1ccc(OC(=O)Nc2ccccc2)cc1 | 0.7 | 4.3 | -12.2% | -3.2 | 12.2% | 16.4
COc1ccccc1CN(C)C(=O)c1ccc(COc2ccccc2)cc1 | -5.4 | -1.8 | 13.7% | -16.8 | -14.9% | -4.0
COc1ccc([C@H]2C[C@H](O)[C@@H](n3cc(-c4ccc(F)cc4)nn3)CN2C(=O)c2cccs2)cc1 | -1.5 | -10.4 | -29.0% | 2.3 | x | 4.3
CCN(CC(=O)Nc1c(F)cccc1F)C(=O)c1ccc(N2CCCC2=O)cc1 | 0.1 | 7.1 | 57.1%[15.4 µM] | -68.2 | 7.1% | 5.4
Cc1ccccc1NC(=O)c1c(C)nc(SCC(=O)OCc2ccccc2)c(C#N)c1-c1ccc(F)cc1 | -2.0 | 8.5 | -1.0%[15.4 µM] | -9.2 | -0.1% | 3.4
CCCCn1c(SCC(=O)N2CCC(C)CC2)nc2cc(S(N)(=O)=O)ccc21 | -1.2 | -0.1 | -5.4% | -2.5 | -4.1% | -2.5
COc1ccc(CCn2c(N)cc(=O)[nH]c2=O)cc1OC | 4.4 | -8.5 | -37.2% | 1.0 | 15.5% | 1.2
CCCN(CC(=O)Nc1ccccc1C)C(=O)c1ccc(COc2ccccc2)cc1 | -0.5 | -0.6 | -24.4% | -0.5 | -15.2% | 6.2
CN(C)S(=O)(=O)c1cccc(NC(=S)N2CCCCC2CO)c1 (stereo not given) | 0.0 | -3.3 | -13.4% | -3.1 | 14.0% | 18.4
OCCN(Cc1ccccc1)Cc1ccccc1F | -1.7 | -9.3 | -13.2% | -2.8 | 7.4% | -6.4
COc1cccc(NS(=O)(=O)Cc2ccccc2)c1 | -4.1 | -0.8 | -45.0%[inhibitor] | 9.2 | 2.4% | 4.5
CC(C)(CO)Nc1nc(Nc2ccccc2)nc(Nc2ccccc2)n1 | -2.6 | 11.7 | -16.3% | -6.3 | -4.8% | -3.9
Cc1ccc(OCC(=O)N2CCN(S(=O)(=O)c3ccc4c(c3)OCCO4)CC2)c(C)c1 | -4.0 | -8.2 | u | -5.8 | -2.8% | x
NNC(=O)c1ccc(O)cc1O | -0.6 | -6.7 | -19.6% | -1.2 | -1.7% | 12.9
Cn1nc(-c2ccc(Cl)cc2)cc1NC(=O)CSCC(=O)O | -4.6 | 4.0 | 7.7%[15.4 µM] | -0.7 | 8.2% | -4.6
CCOC(=O)c1cc(-c2ccccc2C)nn1Cc1cc(CC)no1 | -1.9 | 27.4 | -45.1%[inhibitor] | -1.7 | -18.1% | 31.5
CC(C)(C)c1ccc(OCC(O)CN2CCOCC2)cc1 (stereo not given) | -3.3 | -21.0 | -0.1%[15.4 µM] | -7.7 | -8.9% | 1.9
CCC(OC(=O)CN1C(=O)C(=O)c2ccccc21)C(=O)Nc1ccccc1OC (stereo not given) | -14.4 | 7.5 | -43.5%[inhibitor] | -31.4 | 10.0% | -8.3
CN(C)c1ccc(C(c2ccc(N(C)C)cc2)c2ccc([N+](=O)[O-])cc2)cc1 | -2.8 | -83.1* | -3.8% | -4.6 | 0.4% | u
CN(CC(=O)Nc1cccc(F)c1)C(=O)CN1c2cccc3cccc(c23)S1(=O)=O | 12.4 | -6.7 | 3.2% | 2.1 | -12.5% | -1.2
O=C(CC1(O)C(=O)N(Cc2ccccc2Cl)c2ccccc21)c1ccco1 (stereo not given) | -1.5 | -1.4 | -0.9% | -5.4 | -2.6% | 5.9
CCCCSCCCNC(=O)C1CCC(CNS(=O)(=O)c2ccccc2)CC1 (stereo not given) | 1.8 | 1.0 | u | -10.4 | -3.4% | 10.0
C=CCN1C(=O)/C(=C/c2cccs2)S/C1=N\S(=O)(=O)c1ccc(F)cc1 | -2.4 | 1.7 | u | 2.0 | 2.2% | -2.6
CCN(CC)CC(=O)N1c2ccccc2Sc2ccccc21 | -0.6 | -1.0 | -2.5% | -11.0 | 19.4% | -2.6
CCCNC(=O)c1ccc2nc(-c3ccccc3)c(-c3ccccc3)nc2c1 | -0.3 | -3.7 | 2.7% | 3.1 | -3.6% | -2.1
CN1CCN(S(=O)(=O)c2cccc(C(=O)N(Cc3ccccc3)c3ccccc3)c2)CC1 | 1.0 | -0.8 | 3.2%[15.4 µM] | -18.6 | 1.9% | -18.7
Cc1cccc2cc(C#N)c(SCC(=O)NCC3CCCO3)nc12 (stereo not given) | 0.7 | 0.5 | u | -4.7 | -2.0% | -0.5
CN1CCN(C(=O)c2cnn(-c3ccccc3)c2NC(=O)c2ccccc2)CC1 | -3.2 | 4.5 | 15.2% | -9.0 | 13.7% | 7.3

Only gsp antagonist (3 entries from above):
SMILES | gsp antagonist
CCN(CC)CC(=O)N1c2ccccc2Sc2ccccc21 | 19.4%
CCCNC(=O)c1ccc2nc(-c3ccccc3)c(-c3ccccc3)nc2c1 | -3.6%
CN1CCN(S(=O)(=O)c2cccc(C(=O)N(Cc3ccccc3)c3ccccc3)c2)CC1 | 1.9%

Screening data deposited in PubChem by National Center for Advancing Translational Sciences (NCATS).
